Bioassay records as filed in PubChem.
HNF4A DNA FP: change in binding of human HNF4 alpha to DNA; P41235; HNF4a-FITC DNA binding, fluorescence polarization, 1 h; activity change, % at 10 µM; 360,000 tested, 0.3% active; AID 1224865; in the data active = activity change above about 30%, passing the limit was not always enough;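 note: controls were the assay level and a saturating level of protein; the project sought stronger binding though the title names inhibitors; some compounds called inactive have numbers as strong as hits; positive values seem to mean higher polarization but the record does not say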
UCH37 inh: inhibitors of human deubiquitinating enzyme UCH37 | Q9Y5K5 | purified proteasome/UCH37, Ub-AMC cleavage fluorescence | inhibition, % (test concentration not listed) | AID 588478 | 330,000 tested, 0.33% active;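 active = mean of two replicates above 20%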;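 note: 0% = compound-free wells with enzyme and 100% = wells lacking proteasome; stock transfer was 100 nL into about 20 µL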
Target sequence (Q9Y5K5 whole entry, looked up): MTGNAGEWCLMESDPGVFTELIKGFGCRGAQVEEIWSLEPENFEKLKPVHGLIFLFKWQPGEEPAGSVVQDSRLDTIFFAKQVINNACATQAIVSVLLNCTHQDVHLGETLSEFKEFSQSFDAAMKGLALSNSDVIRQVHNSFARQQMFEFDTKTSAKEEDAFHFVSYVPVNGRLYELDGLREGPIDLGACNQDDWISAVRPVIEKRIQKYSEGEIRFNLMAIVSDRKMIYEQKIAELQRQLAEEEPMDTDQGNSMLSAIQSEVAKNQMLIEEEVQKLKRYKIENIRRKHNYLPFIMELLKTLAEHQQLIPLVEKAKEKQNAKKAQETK
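Material: human UCH37 enzyme supplied as purified proteasome complex / Amount: 0.15 nM proteasome as dispensed / Buffer or medium: pH 7.4 Tris-HCl (50 mM) with ovalbumin, ATP-MgCl2, DTT / Times: preincubation 30 min, reaction 25 min, room temperature / Technique: AMC fluorescence from Ub-AMC cleavage, excitation 355 nm, emission 460 nm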
Vif TR-FRET: inhibitors of Vif binding to APOBEC3G peptide, primary screen, biochemical, TR-FRET, GST-Vif 1-94, biotin-A3G peptide, dose response retest (AID 1117319). TR-FRET GST-Vif / biotin-A3G peptide binding; higher % means a stronger effect; test concentration not given here; strong numbers were not always called active. inhibition, %; hits with a dose series show IC50 in µM. 260,000 tested, 0.57% active;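 active = above the screen mean plus three standard deviations and confirmed in dose response; inconclusive = results disagree or hit not tested in dose response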;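 note: Vif residues 1-94 fused to GST binding biotinylated APOBEC3G peptide 110-148; 0% = full assay without inhibitor and 100% = GST in place of GST-Vif; retest series ran down from 100 µM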
Ecoli growth: blocks Escherichia coli growth | OD600 absorbance (concentration not given with the values) | OD600, 23 h; hits give low values | 330,000 tested, 0.21% active;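 active = OD600 absorbance below the run mean of sample wells minus 3.6 SD, in any replicate, cut at about 0.56 in these data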;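 note: stock transfer was 300 nL into about 60 µL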
FGF22 binding: binders of recombinant human FGF22 by thermal shift; SYPRO orange fluorescence; percent of sucrose octasulfate shift, DMSO zero; Q9HCT0; 340,000 tested, 1.5% active; AID 651658; calls only at 9.99 µM;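 active = melting point raised past a set limit in the mean and every replicate; inconclusive = no clear call; three in four hits are not shown here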
MLL AF4-AF9 inh: inhibitors of human MLL-AF4/AF9 interaction. P42568. 350,000 tested, 0.47% active. inhibition, % at 10 µM. AID 651704. AlphaScreen, biotin-AF4 peptide binding to FLAG-AF9;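 active = every replicate reaching a set inhibition limit, whatever the replicate mean, cut at about 25% in these data; inconclusive = mean inhibition reaches that limit but some replicates miss it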;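 note: 0% = plate neutral control median and 100% = total signal loss; the record names both 10 and 1 µM as test concentration; the first replicate is given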
Target sequence (P42568 whole entry, looked up): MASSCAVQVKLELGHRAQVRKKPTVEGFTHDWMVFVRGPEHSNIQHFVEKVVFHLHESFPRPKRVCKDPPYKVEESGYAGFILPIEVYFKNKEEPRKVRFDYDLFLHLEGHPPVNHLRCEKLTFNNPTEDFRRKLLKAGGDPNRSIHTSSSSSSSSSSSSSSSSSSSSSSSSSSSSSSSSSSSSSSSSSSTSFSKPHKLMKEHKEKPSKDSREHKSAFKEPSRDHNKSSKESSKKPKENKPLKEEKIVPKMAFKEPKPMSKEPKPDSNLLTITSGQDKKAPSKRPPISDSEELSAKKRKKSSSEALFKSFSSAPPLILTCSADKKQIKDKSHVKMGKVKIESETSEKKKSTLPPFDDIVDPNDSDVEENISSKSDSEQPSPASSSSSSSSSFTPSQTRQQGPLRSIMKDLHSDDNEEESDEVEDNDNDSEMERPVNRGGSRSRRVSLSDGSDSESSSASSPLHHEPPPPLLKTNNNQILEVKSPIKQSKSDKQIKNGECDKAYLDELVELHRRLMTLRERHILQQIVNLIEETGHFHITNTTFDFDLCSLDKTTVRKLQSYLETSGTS
RanGTP-Impb inh: inhibitors of RanGTP-importin-beta interaction, primary screen, biochemical, FRET, CFP-Ran, YFP-importin-beta, homogeneous; AID 2216; cell-free CFP-Ran/YFP-importin-beta FRET ratio; 300,000 tested, 1.1% active; inhibition, % (no concentration beside the values);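 active = most replicates above 15%; inconclusive = exactly half above 15%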;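 note: 0% = DMSO wells and 100% = Ran loaded with GDP instead of GTP; wells of about 40 µL received 100 nL stock; the first replicate is given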
Active calls of the source: *; i = inactive; ? = inconclusive; . = no result given; & = joins results of further samples. Not all compounds are listed; rates above refer to the full screens.

cpd	SMILES	UCH37 inh	RanGTP-Impb inh	MLL AF4-AF9 inh	HNF4A DNA FP	Ecoli growth	Vif TR-FRET	FGF22 binding
1	O=C(CSc1cccc[n+]1[O-])Nc1ccc(N2CCOCC2)cc1	2.2	0.8	-1.8	.	0.69	.	i
2	Cc1cc(OCC(=O)Nc2ccccc2C(N)=O)c2c(C)cc(=O)oc2c1	-25	3.0	-0.2	4.0	0.76	.	i
3	COc1ccc(CNC(=O)C(OC(C)=O)c2ccccn2)cc1 (centres undefined)	4.5	-2.1	.	-1.9	0.71	0%	.
4	CC(C)n1nc(C(=O)Nc2cccc(S(=O)(=O)NCc3ccco3)c2)c2ccccc2c1=O	1.3	8.6	3.6	-2.5	0.68	.	i
5	CCOC(=O)N1CCN(C(=O)/C(=C/c2cccc3ccccc23)NC(=O)c2ccc(OC)cc2)CC1	2.9	0.8	8.9	1.1	0.67	12%	i
6	O=C(CSc1nc2ccc(Cl)cc2[nH]1)Nc1ccc2[nH]c(=O)[nH]c2c1	1.5	2.1	0.4	2.8	0.67	4%	i
7	O=C(O)c1ccc(C2SCC(=O)N2Cc2ccccc2)cc1 (centres undefined)	-3.2	2.2	.	-0.4	0.73	2%	.
8	COC(=O)CCC(=O)Nc1cc(OC)c(OC)cc1Cc1nccc2cc(OC)c(OC)cc12	-0.4	-0.3	-1.6	-3.5	0.65	-11%	i
9	COc1cc(Cl)c(C)cc1NC(=O)CN1C(=O)C2CC=CCC2C1=O (centres undefined)	2.4	.	2.6	-1.9	0.68	.	i
10	Cc1ccccc1C(=O)NNC(=O)c1ccncc1	0.8	-1.7	1.4	4.0	0.67	.	i
11	Cc1noc(C)c1S(=O)(=O)Nc1ccc2c(c1)C(=O)N([C@H](C)CO)C[C@H](C)[C@H](CN(C)C(=O)NC(C)C)OCCCC[C@@H](C)O2	.	.	1.6&-2.3	-1.6	.	.	i
12	CN(c1cccc(Cl)c1)S(=O)(=O)c1cccc(C(=O)Nc2nc3ccccc3[nH]2)c1	-12	1.5	5.5	-0.7	0.73	.	i
13	COc1ccccc1C(=O)NC(CCSC)C(=O)NCC(c1cccs1)N1CCOCC1 (centres undefined)	0.5	0.2	7.8	0.0	0.64	1%	i
14	COc1ccccc1/C=N/NC(=O)c1nnn(-c2nonc2N)c1-c1ccccc1	.	3.1	-0.5	1.3	.	.	i
15	Cc1ccccc1NC(=O)CCS(=O)(=O)c1ccc(Br)s1	0.1	2.1	2.3	-0.9	0.68	.	i
16	CCOC(=O)C1(Cc2cccc(F)c2)CCN(C(=O)c2cnc(C)cn2)CC1	3.5	2.8	-0.5	-2.5	0.7	2%	i
17	CCOc1ccc(-n2cnnn2)cc1S(=O)(=O)N1CCCCC1	2.3	-0.5	.	1.7	0.69	2%	.
18	CC1CCc2sc(C(=O)NCC3CCCO3)cc2C1 (centres undefined)	-0.2	.	-20	2.0	0.68	-8%	i
19	CCOC(=O)C1CCN(C(=O)CS(=O)(=O)Cc2nc(-c3ccccc3Cl)oc2C)CC1	2.4	3.8	-15	4.4	0.7	.	i
20	Cn1c(=O)c(C(=O)COC(=O)c2cc(-c3ccccc3)nc3ccccc23)c(N)n(Cc2ccccc2)c1=O	2.6	-2.4	.	.	0.71	.	.
21	CC(=O)NC(CC(=O)OCC(=O)N1c2ccccc2NC(=O)C1(C)C)c1ccccc1 (centres undefined)	2.3	.	-4.8	-0.2	0.69	-8%	i
22	CN(CC(=O)Nc1cccc(F)c1)C(=O)c1ccncc1	2.1	-0.3	-0.5	-0.7	0.76	-9%	i
23	Cc1ccc(-n2c(SCC(=O)N3CCOCC3)nnc2-c2cccnc2)cc1	1.1	8.2	2.5	2.1	0.7	6%	i
24	COc1ccccc1-n1c(SCC(=O)N2CCOCC2)nc2ccccc2c1=O	-0.3	?	-0.9	-0.9	0.69	4%	i
25	Cc1ccc(NCc2nnc(SCCN3CCCCC3)n2CC2CCCO2)c(C)c1 (centres undefined)	0.9	-5.0	.	-0.9	0.71	1%	.
26	CCOC(=O)C(C)n1cnc2c(nnn2-c2ccccc2)c1=O (centres undefined)	2.4	-2.3	.	-4.5	0.71	.	.
27	COc1ccc(C(=O)N(c2c(C)cccc2C)C(COC(C)=O)COC(C)=O)cc1	.	.	-2.0	4.3	.	.	i
28	CCOC(=O)C1=C(C)Nc2ncnn2C1c1cccnc1 (centres undefined)	1.5	-2.6	.	0.7	0.71	-6%	.
29	C=CCn1c(=O)c(C(=O)NCc2ccc3c(c2)OCO3)c(O)c2cc(OC)c(OC)cc21	-103	-0.7	-0.2	-0.6	0.71	.	i
30	CN(C)c1cc(-c2ccc(Br)cc2)oc(=O)c1Cl	6.5	-1.0	-2.0	-0.1	0.7	.	i

Reprinted, entries 29–30
cpd	SMILES	UCH37 inh	RanGTP-Impb inh	MLL AF4-AF9 inh	HNF4A DNA FP	Ecoli growth	Vif TR-FRET	FGF22 binding
29	C=CCn1c(=O)c(C(=O)NCc2ccc3c(c2)OCO3)c(O)c2cc(OC)c(OC)cc21	-103	-0.7	-0.2	-0.6	0.71	.	i
30	CN(C)c1cc(-c2ccc(Br)cc2)oc(=O)c1Cl	6.5	-1.0	-2.0	-0.1	0.7	.	i

The results go on:
cpd	SMILES	UCH37 inh	RanGTP-Impb inh	MLL AF4-AF9 inh	HNF4A DNA FP	Ecoli growth	Vif TR-FRET	FGF22 binding
31	CCOC(=O)c1sc2nc(C)cc(-c3ccccc3)c2c1N	-59	2.9	.	-4.1	0.68	.	.
32	Cc1ccc(C(=O)Nc2nc(-c3ccccn3)cs2)o1	6.2	5.8	-2.9	-1.4	0.69	-5%	i
33	O=C(NC1CCCC1)C1CCN(c2nccs2)CC1	3.9	0.9	.	2.8	0.72	7%	.
34	O=C(c1ccccc1)C1CCN(C(=O)c2ccc(Cl)cc2)CC1	0.6	?	-0.6	2.9	0.63	0%	i
35	O=C(O)/C=C\C(=O)Nc1ccccc1C(=O)NC1CCCCC1	-3.5	5.1	1.3	-3.8	0.64	1%	i
36	COc1ccccc1C(=O)NCCSCc1c(F)cccc1Cl	-0.5	0.4	-1.2	0.8	0.63	.	i
37	COc1ccc(OC)c(-c2nc(C(N)=O)c3[nH]c(=O)n(-c4ccc(F)cc4)c3n2)c1	4.1	?	5.2	3.9	0.74	-1%	i
38	COc1ccccc1C(=O)Nc1cccc(C(=O)N2CCOCC2)c1	1.8	0.7	0.3	0.6	0.72	.	i
39	NC(=O)C1(Nc2ccccc2)CCCC1	4.1	.	-4.1	1.0	0.67	-5%	i
40	COc1ccc(CCN(C)c2ncnc3sccc23)cc1OC	-0.6	1.3	-1.6	-0.8	0.68	.	i
41	COc1cc2[nH]c(=S)nc(NCc3ccc(Cl)cc3)c2cc1OC	-6.7	0.5	0.3	0.9	0.68	-1%	i
42	Cc1ccccc1OCC(=O)Nc1ccccc1C(=O)NC1CC1	0.1	-5.1	-8.7	-0.1	0.71	-5%	i
43	Cc1ccccc1N(C(=O)c1snc(C(N)=O)c1N)C(C)C(=O)NC1CCCCC1 (centres undefined)	.	-0.3	-6.8	-2.5	.	.	i
44	CN(C(=O)c1ccc2ccccc2c1)c1ccccn1	3.5	-5.2	2.8	-4.4	0.66	.	i
45	COc1ccc(N=N/C(C(C)=O)=C(/C)O)cc1	7.6	-3.9	.	2.6	0.67	-4%	i
46	COc1ccc(S(=O)(=O)N2CCOC2CNC(=O)C(=O)NCc2ccccn2)cc1C (centres undefined)	-0.9	?	-1.8	-0.7	0.69	.	i
47	CC(C)NS(=O)(=O)c1ccc2c(c1)oc(=O)n2C	2.1	4.2	-3.1	4.2	0.67	?	i
48	[O-]C1=N/[N+](=C/c2ccc(Cl)c(Cl)c2)CC1	0.4	4.2	.	2.7	0.71	-4%	.
49	COc1cccc(-n2nc(C(=O)NCC3CCCO3)c3ccccc3c2=O)c1 (centres undefined)	1.7	3.3	-7.1	0.3	0.68	13%	i
50	NC(=O)c1ccc(NC(=O)CSc2nnc(-c3ccccn3)n2N)cc1	0.4	-2.0	-0.4	1.7	0.65	7%	i
51	CN(Cc1ccccc1)C(=O)c1ccc(NC(=O)Cc2ccc(NC(=O)C3CCN(C(=O)C4CCCC4)CC3)cc2)cc1	4.6	.	9.0	-1.0	0.71	0%	i
52	O=C(NCc1ccccc1Cl)C(=O)c1cn(CC(=O)N2CCOCC2)c2ccccc12	8.9	-0.6	2.1	2.3	0.66	-6%	i
53	COc1ccc(-c2noc(CN(Cc3nccn3C)C(C)C)n2)cc1	1.2	-2.0	3.1	1.3	0.72	0%	i
54	COC(=O)c1ccc(C(=O)OC)c(NC(=O)N2c3ccccc3Sc3ccccc32)c1	-108	-1.2	0.4	6.1	0.69	23%	i
55	Cc1[nH]c2ccccc2c1CN1CCC(Cc2ccccc2)CC1	5.9	-1.5	19	2.4	0.71	-6%	i
56	CNC(=S)N(Cc1ccc2c(c1)OCO2)C1CC(=O)N(c2ccc(F)cc2)C1=O (centres undefined)	3.6	3.9	.	1.1	0.78	30%	.
57	Cc1ccc(NS(=O)(=O)c2cc([N+](=O)[O-])ccc2NNC(=S)Nc2cccc(Cl)c2)c(C)c1	6.1	0.0	.	30	0.69	18%	.
58	CCCCN1C(=O)N(C)C2C1N(C)C(=O)N2CCCC (centres undefined)	2.8	13	.	-2.2	0.75	2%	.
59	CCOC(=O)c1ccc(S(=O)(=O)N2CCC(C(=O)O)CC2)cc1	2.4	0.7	.	3.6	0.72	5%	.
60	CCOCc1nnc(NC(=O)c2cc(OC)c(OC)c(OC)c2)s1	3.1	10	-2.3	1.7	0.67	.	i
61	CC(=O)Nc1ccc(CN2CCN(CC=C(C)C)C(CCO)C2)cc1 (centres undefined)	5.5	1.2	3.9	2.1	0.66	?	i
62	CCC(C)NC(=O)c1cnn2c1NC(c1ccc3c(c1)OCO3)CC2C(F)(F)F (centres undefined)	2.3	.	.	1.3	0.66	-4%	.
63	O=C(CCNc1cccc(F)c1)c1cc2ccccc2o1	3.8	-1.5	-2.0	3.2	0.72	?	i
64	CCC(=O)N1CCC2(CC1)Oc1ccc(F)cc1C(=O)C21CC(c2cccnc2)=NO1 (centres undefined)	-2.2	4.7	-1.1	-2.9	0.59	4%	i
65	Cc1ccc(OCC(=O)NCCCNC(=O)c2ccco2)cc1	0.4	-5.1	-0.2	-4.6	0.7	.	i

2 of these compounds in a different format:
Screens in order: UCH37 inh | RanGTP-Impb inh | MLL AF4-AF9 inh | HNF4A DNA FP | Ecoli growth | Vif TR-FRET | FGF22 binding
#64 CCC(=O)N1CCC2(CC1)Oc1ccc(F)cc1C(=O)C21CC(c2cccnc2)=NO1 (centres undefined)
  -2.2 | 4.7 | -1.1 | -2.9 | 0.59 | 4% | i
#62 CCC(C)NC(=O)c1cnn2c1NC(c1ccc3c(c1)OCO3)CC2C(F)(F)F (centres undefined)
  2.3 | . | . | 1.3 | 0.66 | -4% | .
